# Compound activity (PubChem BioAssay)
# StopGo reporter – FMDV 2A StopGo reporter, luciferase signal. human cells with a luciferase reporter of 2A StopGo recoding; control for the full effect not named in the record. Potency, µM (series often up to 57.9 µM), for the others: at the top dose signal change, negative = less light. 410,000 tested, 1.2% active. AID 1159524; active = well fitted falling curve with a large enough effect; inconclusive = small, poorly fitted or top-dose-only effect; inactive = no such curve, though single readings can be large or run the other way; tested in HEK293T cells; also: % is scaled to controls: 0 for no effect and ±100 for the full control effect; nearly all actives have a fitted effect of over 45% in size; luciferase light after 4 h
# SARS PLpro yeast – blocks SARS-CoV papain-like protease in a yeast assay; S. cerevisiae expressing SARS-CoV PLpro, growth rescue; control for the full effect not named in the record; Potency, µM (highest dose often 32.9 µM), without a hit: at the highest dose activity, positive = growth rescue; 330,000 tested, 0.19% active; active means well fitted rising curve with a large enough effect; inconclusive means small, poorly fitted or top-dose-only effect; inactive means no such curve, though single readings can be large or run the other way; also: 0% is about no effect; nearly all actives have a fitted effect of over 55% in size; growth read by luminescence after 48 h
# RE007 growth inh – less growth of the S. pombe RE007 Vpr strain | 360,000 tested, 0.21% active | S. pombe RE007 Vpr strain, BacTiter-Glo ATP luminescence, 24 h; control for the full effect not named in the record | Potency, µM (highest dose often 92.2 µM), inactives show at the top dose activity change, negative = less growth; active = well fitted falling curve with a large enough effect; inconclusive = small, poorly fitted or top-dose-only effect; inactive = no such curve, though single readings can be large or run the other way;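 also: % is scaled to controls: 0 for no effect and ±100 for the full control effect; nearly all actives have a fitted effect of over 50% in size; the assay follows cell death caused by Vpr and the record does not say whether a fall means rescue or toxicity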
#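 Fission yeast RE007 carrying one integrated HIV-1 vpr copy, seeded at OD 0.01 in PMG+AL medium with 23 nL pinned compound. Grown 24 h at 30 degrees; viability read by BacTiter-Glo luminescence after 5 min.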
# Numbers without * were called inactive; ? = inconclusive; [ ] = remark or other dose. Potency is read from the fitted curve at half-maximal effect.
SMILES,StopGo reporter,SARS PLpro yeast,RE007 growth inh
CC1CCCN(C(=O)c2ccc(Br)c(S(=O)(=O)N3CCOCC3)c2)C1 (configuration not stated),7%,1%,-3%
CN1CCN(C(=O)c2ccc(S(=O)(=O)Nc3ccccc3)cc2)CC1,-2%,-5%,1%
COc1ccc(NC(=O)CSc2n[nH]c(=O)n2C2CC2)cc1OC,-8%,-2%,2%
NNC(=O)C(=O)NCCCN1CCOCC1,9%,2%,-14%
COc1ccc(-c2noc(CCC(=O)N3CCN(c4ccc(F)cc4)CC3)n2)cc1,-12%,20%,3%
CC(=O)c1ccc(NC(=O)[C@@H]2CCCN2C2=NS(=O)(=O)c3ccccc32)cc1,0%,-3%,4%
Cc1ccc(S(=O)(=O)N2[C@@H](c3ccccc3)C(C(=O)O)=CC[C@H]2c2cccc(C)c2)cc1,13%,-2%,5%
NS(=O)(=O)c1ccc(CCNC(=O)CNC(=O)c2ccc(Br)o2)cc1,-19%,1%,-1%
C=CC[C@H](CC(=O)OC(C)(C)C)C(=O)OC[C@H]1CCCN1C(=O)[C@H](CC=C)CC(=O)NCCO,-15%,-13%,-12%
O=C(CN1C(=O)NC(c2ccccc2)(c2ccccc2)C1=O)NCc1ccc(F)cc1,-16%,3%,-13%
CC(=O)Nc1ccc(C(=O)NNC(=O)c2ccccc2-n2cccc2)cc1,-10%,3%,-4%
COCCCNC(=O)C[C@H]1C[C@H](C(=O)N2CCCCC2)[C@@]2(C)c3[nH]c4ccc(Cl)cc4c3CCN2C1=O,-24%,9%,-13%
C[C@@]12C(=O)Nc3ccc(Cl)cc3C(=O)N1[C@H]1c3cc(Br)ccc3OC[C@@H]1[C@@H]2c1ccccc1,?,-4%,5%
CCN(CC)S(=O)(=O)c1ccc(Cl)c(NC(=O)COC(=O)C2CCCCC2)c1,0%,-4%,-13%
COC(=O)[C@@]12CCCCN1[C@H](c1ccc(-c3ccc(C(C)=O)cc3)cc1)[C@@H]1C(=O)N(C)C(=O)[C@@H]12,-22%,-3%,12%
O=C(C[C@@H]1C/C=C\C[C@@H](Cc2ccc(F)cc2)C(=O)OC[C@@H](Cc2ccccc2)NC1=O)N[C@H](CO)Cc1ccccc1,-20%,3%,-1%
Cc1ccnc(NS(=O)(=O)c2ccc(NC(=O)c3ccc(S(=O)(=O)N4CCCC4)cc3)cc2)n1,-13%,-4%,1%
COc1ccc(/C=C\C(=O)O[C@@H]2C(O)C(O[C@@H]3OC(C)[C@H](O[C@@H]4OCC(O[C@H]5O[C@H](CO)[C@@H](O)C(O)C5O)C(O)C4O)C(O)C3O)[C@H](OC(=O)[C@]34CCC(C)(C)C[C@@H]3C3=CCC5[C@@]6(C)CC(O)C(O[C@@H]7OC(CO)C(O)[C@H](O)[C@H]7O)[C@@](C)(C(=O)O)C6CC[C@@]5(C)[C@]3(CO)CC4)O[C@H]2C)cc1 (some centres not stated),0%,1%,?
O=S(=O)(c1ccc(SCc2ccccc2F)nc1)N1CCCC1,-6%,0%,2%
C[C@H](CO)N1C[C@H](C)[C@@H](CN(C)S(=O)(=O)c2ccccc2)Oc2ccc(NC(=O)Nc3ccccc3)cc2C1=O,-14%,-1%,1%
Cc1ccc(C)c(OCC(=O)NNC(=O)C2CCC2)c1,3%,17%,-8%
Cc1ccc2nc(N(CCCN(C)C)C(=O)COc3ccc(Cl)cc3)sc2c1,-14%,-8%,1%
Cc1ccc(NC(=O)c2ccc(C)cc2)cc1,-5%,4%,1%
Cc1ccc(NC(=O)COC(=O)c2c(-c3ccccc3)noc2C)c(C)c1,-20%,-5%,-17%
COc1ccc(C2Nc3ccccc3C(=O)N2NC(C)=O)cc1OC (configuration not stated),10%,-2%,-11%
COC(=O)c1ccccc1NC(=S)N1CCC(N2CCCCC2)CC1,-3%,1%,-9%
COc1ccc(CCNC(=O)c2oc3ccccc3c2C)cc1,-1%,5%[6.58 µM],-16%
CCCn1c(SCC(=O)Nc2cc(C)on2)n[nH]c1=O,-4%,5%,1%
COc1cc(OC)cc(-c2c(C#Cc3ccsc3)c3cc(-c4ccc(OC)c(F)c4)ccc3n2C)c1,0%,1%,-12%
O=C(NCc1ccccc1CN1CCCC1)c1cc2cc(Cl)ccc2o1,-28%,-4%,2%
COc1ccc(OCc2cc(=O)c3ccc4c(c3o2)C=CC(C)(C)O4)cc1OC,?,-4%,-25%
CC(C)(C)c1ccc(C(=O)OCc2c(-c3ccccc3)ncc3ccccc23)cc1,-20%,0%,7%
COc1ccc(S(=O)(=O)N(C)C[C@H]2Oc3ccc(NS(=O)(=O)c4ccccc4)cc3CC(=O)N([C@H](C)CO)C[C@@H]2C)cc1,-12%,-3%,2%
COc1cccc(NC(=O)COC(=O)Cn2c(C)csc2=O)c1,-4%,1%,-4%
Cc1ccc(S(=O)(=O)N2CCOCC2)cc1NC(=O)COc1ccc(C(=O)c2ccccc2)cc1,20µM*,-2%,?
CC1=C/C(=C(/c2ccc(O)c(C)c2)c2ccccc2S(=O)(=O)O)C=CC1=O,0%,2%,-6%

# Continued, overlapping the part above by 4 compounds.
SMILES,StopGo reporter,SARS PLpro yeast,RE007 growth inh
COc1ccc(S(=O)(=O)N(C)C[C@H]2Oc3ccc(NS(=O)(=O)c4ccccc4)cc3CC(=O)N([C@H](C)CO)C[C@@H]2C)cc1,-12%,-3%,2%
COc1cccc(NC(=O)COC(=O)Cn2c(C)csc2=O)c1,-4%,1%,-4%
Cc1ccc(S(=O)(=O)N2CCOCC2)cc1NC(=O)COc1ccc(C(=O)c2ccccc2)cc1,20µM*,-2%,?
CC1=C/C(=C(/c2ccc(O)c(C)c2)c2ccccc2S(=O)(=O)O)C=CC1=O,0%,2%,-6%
CC(C)(C)OC(=O)C[C@@H]1C/C=C\C[C@@H](CC(=O)N(CCO)Cc2ccccc2)C(=O)NC[C@H](c2ccccc2)OC1=O,-17%,-1%,19%
COC1=CC(=O)c2ccccc2C1=O,?,-19%,22µM*
C[C@@]12CCC3[C@@](CCC4[C@@]3(C)CCC[C@@]4(C)C(=O)NC3CCCCC3)(CC1=O)C2 (some centres not stated),?,3%,37%
CCC(=O)NNc1nc2c(C)c(C)ccc2s1,6%,-1%,9%
CCCCNc1c(-c2ccc(SC3CCCCC3)cc2)nc2ccccn12,?,-3%,?
COc1cc(-c2noc(C)c2C(=O)NCc2ccc(C)o2)cc(OC)c1OC,-23%,1%,8%
COC(=O)Cn1cnc(C(=O)Nc2ccc(C)c(C)c2)n1,2%,12%,11%
Cc1cc(NC(=O)c2cccs2)ccc1NC(=O)Cc1ccccc1,22%,0%,-14%
COc1cccc(C2=CC(=O)CC(C)(C)C2)c1OC,1%,2%,-13%
CCCSc1ccc([C@H]2N[C@@](C)(C(=O)OC)[C@H]3C(=O)N(CC)C(=O)[C@@H]23)cc1,-5%,6%,2%
CCN(C[C@H]1N[C@@](CC)(C(=O)OC)[C@H]2C(=O)N(C)C(=O)[C@@H]12)S(=O)(=O)c1ccc(C(F)(F)F)cc1,-18%,4%,1%
COC(=O)c1sccc1NC(=S)Nc1cc(C)ccc1OC,52%[activator],1%,33%
O=C1NCCOC(=O)[C@H](Cc2ccc(F)cc2)CC/C=C/C[C@H]1CC(=O)N(CCO)Cc1ccccc1,?,1%,5%
CC1CCCN(C(=O)COC(=O)/C=C/c2ccc(C(F)(F)F)cc2)C1 (configuration not stated),-8%,-5%,-16%
CCC(C)C(NC(=O)c1ccccc1NC(=O)c1ccc(C)cc1)C(=O)O (configuration not stated),47%[activator],0%,18%
CCc1nnc(NC(=O)CSc2nnc(Cc3cc(=O)[nH]c(=O)[nH]3)n2-c2ccc(OC)cc2)s1,0%,0%,-6%
O=S(=O)(c1ccccc1)N(F)S(=O)(=O)c1ccccc1,-16%,1%,7%
O=C(NC(=S)N1CCOCC1)c1cn(-c2ccccc2)nc1-c1ccccc1,-8%,3%,0%
CNC(=O)c1ccc(-c2cc3onc(-c4ccccc4)c3c(=O)n2C)cc1,-5%,4%,19%
C=CCC[C@H](Cc1ccc(F)cc1)C(=O)OC[C@@H](NC(=O)[C@H](CC=C)CC(=O)NCCO)c1ccccc1,-15%,3%,-10%
CN(Cc1ccc(OC(F)F)cc1)Cc1nc2c(Br)cc(Br)cc2c(=O)[nH]1,-8%,-2%,20%
Nc1ccccc1C(=O)N1O[C@@H]2C=C[C@H]1C2,-4%,9%,1%
Cc1ccc(S(=O)(=O)N2CCOCC2)cc1C(=O)Nc1ccccc1N1CCOCC1,5%,0%,7%
COc1ccc(-c2c(-c3cc(OC)cc(OC)c3)n(C)c3ccc(-c4ccc(SC)cc4)cc23)cc1,14%,2%,8%
COc1ccc(NC(=O)CN2CCN(C(C)=O)CC2)cc1S(=O)(=O)N1CCOCC1,-16%,3%,5%
COc1ccccc1CNC(=O)COC(=O)COc1ccccc1F,-14%,-5%,-21%
CCC(=O)c1cc(F)ccc1OCC(=O)N1CCN(c2ccc(F)cc2)CC1,-22%,-1%,5%
COc1ccc(-c2sc3ccccc3c2-c2ccc(OCCN3CCCCC3)cc2)cc1,-28%,1%,-7%
CCCCNc1nnc(SCC(=O)c2c(N)n(CCC)c(=O)[nH]c2=O)s1,-14%,-1%,1%
CC[C@@H](C)[C@@H]1CN([C@@H](C)CN2CCC[C@H]2CN2C(N)=NC[C@@H]2Cc2ccccc2)C(=N)N1CCCC1CCCC1,7%,3%,21%
O=C(Cn1ccc(NC(=O)OCc2ccccc2)nc1=O)NCCc1ccccn1,-5%,-1%,2%
COc1ccccc1NC(=O)C(C)Sc1nccn1C (configuration not stated),-7%,0%,-6%
COC(=O)c1ccc(N=Cc2c(C(F)(F)F)[nH]n(C)c2=O)cc1,10%,3%,-14%
c1ccc2c(C[C@@H]3CNCCN3CCC34CC5CC(CC(C5)C3)C4)cccc2c1,-10%,-3%,3%
Cn1cccc1C(=O)OCc1nc2ccccc2c(=O)[nH]1,50%[activator],-2%,-16%
CC(C)n1ncc2c(C(=O)Nc3ccc(CC#N)cc3)cc(C3CC3)nc21,-21%,-2%,-7%

# Full records from above. Order of values: StopGo reporter, SARS PLpro yeast, RE007 growth inh
# COc1ccc(NC(=O)CN2CCN(C(C)=O)CC2)cc1S(=O)(=O)N1CCOCC1 in the list: -16%, 3%, 5%
# CC[C@@H](C)[C@@H]1CN([C@@H](C)CN2CCC[C@H]2CN2C(N)=NC[C@@H]2Cc2ccccc2)C(=N)N1CCCC1CCCC1 in the list: 7%, 3%, 21%

# (next part)
SMILES,StopGo reporter,SARS PLpro yeast,RE007 growth inh
CN(CC(=O)Nc1cccc(F)c1)C(=O)c1cn(-c2ccccc2)nc1-c1ccc(F)cc1,-8%,-2%,7%
C(=Nc1cccc2c(N=Cc3ccco3)cccc12)c1ccco1,14%,7%,-3%
COc1ccc(C(=O)NC(=S)NNC(=O)c2ccncc2)cc1Br,-17%,10%,7%
CC1CCC(C(C)C)C(OCC(O)CNC(C)(C)C)C1 (configuration not stated),-11%,0%,-15%
CC(C)(C)c1ccc(NC(=O)COC(=O)c2ccc(CN3CCCC3=O)cc2)cc1,1%,-3%,-3%
N#Cc1ccccc1OCC(=O)N1CCN(S(=O)(=O)c2ccc(Cl)cc2)CC1,-21%,-4%,8%
Cc1ccc(F)cc1S(=O)(=O)Nc1cccc(C(=O)N2CCCC(C(N)=O)C2)c1 (configuration not stated),-11%,-2%,-1%
COc1ccc(-c2c(C#Cc3ccsc3)c3cc(-c4ccc5cc[nH]c5c4)ccc3n2C)cc1,30%,4%,3%
O=C(C[C@@H]1C/C=C/CC[C@H](Cc2ccc(F)cc2)C(=O)OC[C@@H](Cc2ccccc2)NC1=O)N[C@H](CO)Cc1ccccc1,-27%,0%,-1%
COc1ccc([C@H]2CC(=O)C=C(c3ccc(C)cc3)C2)cc1OC,?,3%,0%
Cc1cc(NC(=S)N(Cc2cccc(Br)c2)CC2CCC(C(=O)O)CC2)ccc1Cl (configuration not stated),-25%,-13%,6%
O=C(CN1C(=O)CCOc2ccccc21)Nc1ccc(Cl)c(S(=O)(=O)N2CCOCC2)c1,-10%,1%,-9%
CCN1C(=O)C(CC(=O)Nc2ccc(C)cc2C)Nc2cc(S(=O)(=O)N(C)C)ccc21 (configuration not stated),-22%,-1%,6%
O=c1oc(CCCO)cc2ccc(C#Cc3ccsc3)cc12,23%,-4%,9%
C[C@H](CO)N1C[C@H](C)[C@@H](CN(C)C(=O)Nc2ccc3c(c2)OCO3)Oc2ccc(NC(=O)Nc3ccc4c(c3)OCO4)cc2C1=O,5%,-4%,0%
Cc1ccc(S(=O)(=O)/N=C(/Nc2c(C)cccc2C)c2ccccc2)cc1,10%,5%,-15%
O=C(Cn1cnc2c(OCc3ccccc3)ncnc21)NCCCc1ccccc1,-10%,-1%,-5%
COc1ccc(CCNC(=O)COC(=O)c2cc(S(=O)(=O)N3CCCC3)ccc2O)cc1,-9%,-7%,5%
O=C(NCc1n[nH]c(=S)n1-c1ccc(Br)cc1)c1ccc(S(=O)(=O)N2CCCC2)cc1,-11%,0%,7%
COc1ccc(Cl)cc1C(=O)Nc1cccc(-c2ccc3nncn3n2)c1,-20%,-1%,-6%

# A portion of the library, so the mix of outcomes need not match the whole.
